RanGTP-Impb inh – inhibitors of RanGTP-importin-beta interaction, primary screen, biochemical, FRET, CFP-Ran, YFP-importin-beta, homogeneous | cell-free CFP-Ran/YFP-importin-beta FRET ratio | 1.1% of 300,000 active | AID 2216 | inhibition, % (no concentration beside the values);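 active = most replicates above 15%; inconclusive = exactly half above 15%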;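 note: 0% = DMSO wells and 100% = Ran loaded with GDP instead of GTP; wells of about 40 µL received 100 nL stock; the first replicate is given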
Ecoli growth – inhibitors of Escherichia coli growth; AID 1053175; OD600 absorbance (test concentration not listed); 0.21% of 330,000 active; OD600, 23 h; hits give low values;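 active = OD600 absorbance below the run mean of sample wells minus 3.6 SD, in any replicate, cut at about 0.56 in these data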;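 note: stock transfer was 300 nL into about 60 µL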
UCH37 inh – blocks the human deubiquitinase UCH37. purified proteasome/UCH37, Ub-AMC cleavage fluorescence. inhibition, % (concentration not given with the values). Q9Y5K5. 0.33% of 330,000 active;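 active = mean of two replicates above 20%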;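 note: 0% = compound-free wells with enzyme and 100% = wells lacking proteasome; stock transfer was 100 nL into about 20 µL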
Target sequence (Q9Y5K5 whole entry, looked up): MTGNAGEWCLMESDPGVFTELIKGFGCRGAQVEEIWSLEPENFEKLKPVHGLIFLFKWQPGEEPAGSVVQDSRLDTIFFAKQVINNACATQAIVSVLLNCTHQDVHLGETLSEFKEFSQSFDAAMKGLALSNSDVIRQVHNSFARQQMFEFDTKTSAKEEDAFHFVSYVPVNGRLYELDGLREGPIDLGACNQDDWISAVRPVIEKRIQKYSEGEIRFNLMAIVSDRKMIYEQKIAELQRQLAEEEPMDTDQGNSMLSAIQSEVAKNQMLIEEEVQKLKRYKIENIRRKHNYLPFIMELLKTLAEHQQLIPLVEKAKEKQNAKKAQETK
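Material: Human UCH37 enzyme supplied as purified proteasome complex | Schedule: 30 min compound-proteasome preincubation then 25 min substrate reaction, room temperature | Detection: AMC fluorescence from Ub-AMC cleavage, excitation 355 nm, emission 460 nm | Benchmarks: Wells without proteasome as full block, compound-free enzyme plus substrate as uninhibited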
Vif TR-FRET – inhibitors of Vif binding to APOBEC3G peptide, primary screen, biochemical, TR-FRET, GST-Vif 1-94, biotin-A3G peptide, dose response retest (AID 1117319). TR-FRET GST-Vif / biotin-A3G peptide binding; higher % means a stronger effect; test concentration not given here; strong numbers were not always called active. inhibition, %, or IC50 in µM where a hit was titrated. 0.57% of 260,000 active;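 active = above the screen mean plus three standard deviations and confirmed in dose response; inconclusive = results disagree or hit not tested in dose response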;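 note: Vif residues 1-94 fused to GST binding biotinylated APOBEC3G peptide 110-148; 0% = full assay without inhibitor and 100% = GST in place of GST-Vif; retest series ran down from 100 µM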
HNF4A DNA FP – change in binding of human HNF4 alpha to DNA; P41235; HNF4a-FITC DNA binding, fluorescence polarization, 1 h; activity change, % at 10 µM; 0.3% of 360,000 active; AID 1224865; in the data active = activity change above about 30%, passing the limit was not always enough;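 note: controls were the assay level and a saturating level of protein; the project sought stronger binding though the title names inhibitors; some compounds called inactive have numbers as strong as hits; positive values seem to mean higher polarization but the record does not say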
Target sequence (P41235 whole entry, looked up): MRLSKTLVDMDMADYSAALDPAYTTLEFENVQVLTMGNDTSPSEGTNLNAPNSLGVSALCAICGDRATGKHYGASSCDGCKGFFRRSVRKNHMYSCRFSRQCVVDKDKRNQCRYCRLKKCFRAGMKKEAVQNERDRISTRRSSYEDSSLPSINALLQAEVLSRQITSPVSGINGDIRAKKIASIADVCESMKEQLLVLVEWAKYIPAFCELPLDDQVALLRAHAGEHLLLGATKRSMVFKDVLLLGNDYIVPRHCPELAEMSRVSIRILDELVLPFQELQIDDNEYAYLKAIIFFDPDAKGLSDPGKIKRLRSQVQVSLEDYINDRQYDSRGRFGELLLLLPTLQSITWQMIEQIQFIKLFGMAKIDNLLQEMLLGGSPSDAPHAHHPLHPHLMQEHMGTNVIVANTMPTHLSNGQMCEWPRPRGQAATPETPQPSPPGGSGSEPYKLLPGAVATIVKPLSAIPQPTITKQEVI
FGF22 binding – shifts melting point of recombinant human FGF22 | AID 651658 | Q9HCT0 | calls only at 9.99 µM | recombinant FGF22 thermal shift, SYPRO orange fluorescence; percent of sucrose octasulfate shift, DMSO zero | 1.5% of 340,000 active;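 active = melting point raised past a set limit in the mean and every replicate; inconclusive = no clear call; three in four hits are not shown here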
Target sequence (Q9HCT0 whole entry, looked up): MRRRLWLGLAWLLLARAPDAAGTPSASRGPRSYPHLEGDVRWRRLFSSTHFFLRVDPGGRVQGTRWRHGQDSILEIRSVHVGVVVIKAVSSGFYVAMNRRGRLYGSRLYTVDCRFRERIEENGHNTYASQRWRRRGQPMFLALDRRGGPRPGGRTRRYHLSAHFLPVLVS
MLL AF4-AF9 inh – inhibitors of human MLL-AF4/AF9 interaction; P42568; AlphaScreen, biotin-AF4 peptide binding to FLAG-AF9; inhibition, % at 10 µM; 0.47% of 350,000 active;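 active = every replicate reaching a set inhibition limit, whatever the replicate mean, cut at about 25% in these data; inconclusive = mean inhibition reaches that limit but some replicates miss it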;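 note: 0% = plate neutral control median and 100% = total signal loss; the record names both 10 and 1 µM as test concentration; the first replicate is given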
* marks the source's active call; other numbers are inactive results; i = inactive; u = inconclusive; x = no result given; & = joins results of further samples. A portion of the library, so the mix of outcomes need not match the whole.

smiles	HNF4A DNA FP	RanGTP-Impb inh	Vif TR-FRET	Ecoli growth	FGF22 binding	UCH37 inh	MLL AF4-AF9 inh
N=c1c2c(-c3ccccc3)c(-c3ccccc3)n(Cc3ccccc3)c2ncn1CCCn1ccnc1	1.1	7.0	-9.0%	0.656	x	23.6*	x
O=S(=O)(c1ccccc1Cl)N1CCC(O)(c2cccnc2)CC1	4.2	u	x	0.649	x	5.7	0.3
Cc1ccc(F)c(NC(=O)CCc2ccccc2)c1	-1.1	3.9	-3.8%	0.71	x	2.0	x
Cc1cc(N)n(-c2ccccn2)n1	-2.1	0.0	-7.3%	0.681	i	4.8	2.0
COc1ccc(Br)cc1CN(C)C(=O)Cc1ccc(OC)c(S(=O)(=O)N2CCOCC2)c1	-3.4	x	8.0%	0.695	i	1.7	1.9
Cc1cc2nccnc2cc1C	3.5	x	-3.6%	0.68	i	0.4	5.9
CN(C)c1ccc(-c2ccnc3c2CC(C)(C(=O)NCCC(F)(F)F)O3)cc1 (stereo unspecified)	2.5	x	x	x	i	x	7.4
COc1ccc(CCN(C)C2CCCN(S(=O)(=O)N(C)C)C2)cc1OC (stereo unspecified)	0.6	-2.5	2.7%	x	i	x	-2.4
COC(=O)CSc1ccc2nnc(-c3ccc(OC)c(OC)c3)n2n1	2.7	4.8	9.9%	0.722	i	4.2	32.5*
Cc1cc(C)n2nc(CC(=O)NNC(=O)COc3cccc(C)c3C)nc2n1	0.1	1.2	x	0.675	i	5.3	-2.2

The results go on.
smiles	HNF4A DNA FP	RanGTP-Impb inh	Vif TR-FRET	Ecoli growth	FGF22 binding	UCH37 inh	MLL AF4-AF9 inh
O=C(Cn1cnc2c(cnn2-c2ccccc2)c1=O)NCCc1ccccc1	-2.7	4.3	19.1%	0.703	x	5.7	x
Cc1cc(C)c(S(=O)(=O)NCCc2ccncc2)c(C)c1	-2.5	u	-0.3%	0.656	i	4.2	-6.8
COC(=O)N/N=C/c1ccc(-c2ccccc2Cl)o1	-1.3	-2.6	-2.4%	x	i	x	-1.3
CC(=O)C1(O)C(C)CC2C3CC=C4CC(O)CCC4(C)C3CCC21C (stereo unspecified)	3.3	x	-10.8%	0.666	i	2.4	-2.7
COc1ccc([N+](=O)[O-])cc1NC(=O)CSc1ccc2ccccc2c1	-2.6	2.1	x	0.734	i	5.4	0.1
COc1ccc(S(=O)(=O)c2snnc2C)cc1	-1.6	1.4	-5.5%	0.676	i	4.2	-0.4
CCOC(=O)c1c(NC(=O)C2C3C=CC(CC3)C2C(=O)O)sc(C)c1CC (stereo unspecified)	0.3	-2.6	13.2%	0.633	i	-1.6	-0.4
C#CCn1cccc(C(=O)Nc2ccc(OC)cc2)c1=O	-3.4	-0.5	-0.1%	0.642	i	9.8	1.5
Cc1cc(Br)cn2c(Cc3cccc(F)c3)c(C3CCCCC3)nc12	-1.5	x	x	x	i	x	-0.1
Cc1cscn1	2.8	x	x	0.663	i	0.1	x

(list continues)
smiles	HNF4A DNA FP	RanGTP-Impb inh	Vif TR-FRET	Ecoli growth	FGF22 binding	UCH37 inh	MLL AF4-AF9 inh
COc1ccccc1-c1cc(C(F)(F)F)nc(S(=O)(=O)CCCC(=O)N2CCCCC2C)n1 (stereo unspecified)	-0.5	0.8	27.8%	0.76	x	-5.8	x
Cc1ccc(N2CCN(C(=O)C3CCC(=O)N(Cc4ccc(Cl)cc4)C3)CC2)c(C)c1 (stereo unspecified)	1.2	u	0.7%	0.673	i	0.1	1.8
COc1ccc(S(=O)(=O)N2CCN(C(=O)COc3ccc(C)c(C)c3)CC2)cc1OC	2.7	3.3	2.5%	0.695	i	0.3	-0.2
Cc1nn(C)cc1S(=O)(=O)N1CCN(c2cccc(Cl)c2)CC1	3.7	-1.2	x	0.736	i	3.1	-0.3
O=C(NC1CCCC1)C(c1ccncc1)N(Cc1ccccc1)C(=O)Cc1cccs1 (stereo unspecified)	2.9	-0.7	3.4%	0.666	x	-0.3	x
Nc1ccccc1C(=O)NCc1ccc(Cl)cc1	-1.1	-1.5	2.5%	0.653	x	-134.9	x
COc1ccc(CNC(=O)C2CCN(S(=O)(=O)c3c(C)noc3/C=C/N(C)C)CC2)cc1	-0.3	2.1	x	0.683	x	16.5	x
Cc1cc(C)c(S(=O)(=O)N2CCOC23CCN(S(C)(=O)=O)CC3)c(C)c1	0.2	x	x	x	i	x	-1.1
COc1ccccc1NC(=S)Nc1cccc(F)c1	3.3	1.6	-5.5%	0.68	x	2.9	x
CCc1ccc(OCC(=O)N(C)CCC#N)c(Br)c1	2.7	-0.2	4.9%	0.695	x	-1.7	x

Remaining list, next part
smiles	HNF4A DNA FP	RanGTP-Impb inh	Vif TR-FRET	Ecoli growth	FGF22 binding	UCH37 inh	MLL AF4-AF9 inh
COC(=O)c1cn(N(C)c2ncc(C(F)(F)F)cc2Cl)c(=O)c2ccccc12	-2.5	5.5	-5.8%	0.727	x	-1.2	x
Cc1ccc2[nH]cc(C(=O)CN3CCN(c4ccccn4)CC3)c2c1	-2.5	3.6	-1.0%	0.69	x	5.6	x
CC12C=CC(=O)C=C1C(F)CC1C3CCC(O)(C(=O)CO)C3(C)CC(O)C12F (stereo unspecified)	-3.3	x	0.1%	x	i	x	-1.1
C=CCn1c(CCc2ccccc2)nnc1SCC(=O)OC	2.5	3.6	6.3%	0.677	i	3.9	-1.5
Cc1cccc(CN2CCC(n3nccc3NC(=O)CCCc3ccccc3)CC2)c1	1.0	x	-4.0%	x	i	x	4.6
COc1ccc(-c2csc3ncnc(N4CCN(c5cccc(C)c5C)CC4)c23)cc1	1.4	-2.5	-0.2%	0.707	i	-2.4	0.5
CC(=O)c1c(C(C)=O)c(C)n(-c2nc(-c3ccc(Br)cc3)c(C)s2)c1C	0.8	2.0	-40.0%	0.678	x	1.6	x
COc1ccc([N+](=O)[O-])cc1NC(=O)COC(=O)/C=C/c1ccco1	0.9	2.0	9.9%	0.665	i	6.7	1.1
c1ccc(C2CSc3ccccc3N2)cc1 (stereo unspecified)	4.9	-0.1	-0.4%	0.639	i	2.0	2.7
Cc1ccc(S(=O)(=O)N2[C@@H](c3ccc(Cl)cc3)C(C(=O)O)=C[C@H]2CC2CCCC2)cc1	-2.0	x	-0.9%	0.653	i	2.4	0.0

Next part
smiles	HNF4A DNA FP	RanGTP-Impb inh	Vif TR-FRET	Ecoli growth	FGF22 binding	UCH37 inh	MLL AF4-AF9 inh
CCC(C)[C@H](NC(=O)NCc1ccc(F)cc1)C(=O)O (stereo partly specified)	0.1	5.5	x	0.676	i	0.8	2.2
CC(NS(=O)(=O)c1ccc(Br)cc1)C(=O)NCc1ccco1 (stereo unspecified)	-1.1	-2.6	x	0.648	i	0.3	0.2
CC1=C(C(=O)N(C)C)CC(CC(=O)NC(c2ccccc2)c2ccccc2)C(=O)N1CCCN1CCCC1=O (stereo unspecified)	-0.4	x	-3.3%	x	i	x	-2.3
CCCC(=O)Nc1nc2ccc(C(=O)OCC)cc2s1	-6.8	0.4	-8.0%	0.729	i	-1.7	u
CCOc1ccc2c(=O)c(-c3ccc4c(c3)OCCCO4)c(C)oc2c1	0.5	1.0	x	0.685	x	4.2	x
CC1Cc2ccccc2N1C(=O)Cn1nc(C(=O)O)c2ccccc2c1=O (stereo unspecified)	1.2	-0.6	3.7%	0.764	x	-0.5	x
COc1ccc(-c2nn(-c3ccccc3)cc2/C=N/N2C(=O)CSC2=S)cc1	11.6	1.6	-14.1%&31.8%	x	x	x	x
Cc1cccc(NC(=O)COC(=O)c2ccc(S(=O)(=O)N3CCCCCC3)cc2)c1	-1.6	x	-8.2%	0.666	i	-0.2	-0.3
O=C(NCC1CCCO1)c1cc(S(=O)(=O)N2CCCCC2)ccc1Cl (stereo unspecified)	3.0	x	7.9%	0.673	i	1.9	1.4
CCc1cccc(NC(=O)COC(=O)CSc2ccc(C)cc2)c1	-0.9	x	x	x	i	x	-3.5

Quoted from the listing.
CCC(C)[C@H](NC(=O)NCc1ccc(F)cc1)C(=O)O (stereo partly specified) in HNF4A DNA FP is listed with 0.1
CC1Cc2ccccc2N1C(=O)Cn1nc(C(=O)O)c2ccccc2c1=O (stereo unspecified) in Vif TR-FRET is listed with 3.7%

Later entries
smiles	HNF4A DNA FP	RanGTP-Impb inh	Vif TR-FRET	Ecoli growth	FGF22 binding	UCH37 inh	MLL AF4-AF9 inh
O=C(NC(Cc1ccccc1)C(=O)N1CCCC1C(=O)O)c1ccccc1 (stereo unspecified)	-0.4	6.1	-3.4%	0.765	x	-1.0	x
COC(=O)[C@@]1(Sc2ccc(C)cc2)CC(=O)N(C(=O)C2CC2)[C@@H]1c1ccccc1	1.4	x	x	x	i	x	-3.5
COc1cccc(/C=C(\C#N)C(=O)NC2CCS(=O)(=O)C2)c1 (stereo unspecified)	4.0	-2.3	6.8%	0.675	i	4.5	1.0
COc1ccc(CNC(=O)c2ccccc2NC(=O)C2=CSCCO2)c(OC)c1	-1.6	-1.7	2.6%	0.705	i	2.7	5.7
Cc1nc2ccccc2c(=O)n1-c1cccc(NC(=O)c2cccs2)c1	-3.9	0.6	-2.2%	0.682	i	0.1	0.4
CN(NS(C)(=O)=O)c1ncc(C(F)(F)F)cc1Cl	-1.9	1.6	-6.5%	0.702	i	4.7	-0.7
COc1cccc(N=Cc2c(O)c3ccccc3oc2=O)c1	-3.5	0.6	x	0.702	x	-72.2	-4.2
COc1ccc(OCc2cccc(C(=O)Nn3cc([N+](=O)[O-])cn3)c2)cc1	0.4	-4.5	2.0%	0.636	x	5.9	x
CC(OC(=O)CCCN=C1NS(=O)(=O)c2ccccc21)C(=O)Nc1ccc(F)c(F)c1F (stereo unspecified)	2.1	1.7	-0.5%	0.69	i	2.3	-12.4
Nc1[nH]nc2nc3ccccc3cc12	-4.6	-1.1	u	0.671	i	1.0	-0.8

(list continues)
smiles	HNF4A DNA FP	RanGTP-Impb inh	Vif TR-FRET	Ecoli growth	FGF22 binding	UCH37 inh	MLL AF4-AF9 inh
O=S(=O)(c1ccc(SCCO)nc1)N1CCOCC1	2.0	x	5.1%	0.641	i	-0.3	-21.4
COc1cccc(/C=C/C(=O)Nc2ccc(C(=O)Nc3cccc(S(N)(=O)=O)c3)cc2)c1OC	-2.5	-1.4	x	0.681	i	-86.8	-1.5
CCCNC(=S)NNC(=O)c1cc(-c2cccnc2)nc2ccccc12	2.0	4.6	10.7%	0.692	i	2.2	-3.2
Cc1ccccc1OC(C)C(=O)Nc1ccc2c(c1)OCO2 (stereo unspecified)	0.1	-1.1	-1.6%	0.688	i	5.4	1.8
O=C(Nc1ccccc1)/C(=C\c1ccccc1)NC(=O)c1ccco1	-1.0	0.7	14.4%	0.642	i	-0.5	x
Cc1ccccc1C(=O)NCc1nnc(SCC(=O)N2c3ccccc3Sc3ccccc32)n1C	0.8	u	4.9%	0.71	x	3.7	x
CN1C[C@@H](CO)O[C@@H](n2cnc3c(N4CCN(CCO)CC4)ncnc32)C1	-2.0	x	x	x	i	x	-5.6
CC(/C=C/c1ccco1)=N/NC(=O)C1COc2ccccc2O1 (stereo unspecified)	3.6	-2.1	18.6%	x	i	x	1.8
CCOC(=O)c1cc2cc3ccccc3cc2[nH]1	-14.8	x	-0.5%	0.738	x	-237.4	3.7
